Bioassay records deposited in PubChem BioAssay by several laboratories.
MLL AF4-AF9 inh: blocks AF4 peptide binding to human AF9. P42568. AlphaScreen, biotin-AF4 peptide binding to FLAG-AF9. inhibition, % at 10 µM. actives 0.47% (n = 350,000). AID 651704;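 active = every replicate reaching a set inhibition limit, whatever the replicate mean, cut at about 25% in these data; inconclusive = mean inhibition reaches that limit but some replicates miss it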;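 also: 0% = plate neutral control median and 100% = total signal loss; the record names both 10 and 1 µM as test concentration; the first replicate is given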
Target sequence (P42568 whole entry, looked up): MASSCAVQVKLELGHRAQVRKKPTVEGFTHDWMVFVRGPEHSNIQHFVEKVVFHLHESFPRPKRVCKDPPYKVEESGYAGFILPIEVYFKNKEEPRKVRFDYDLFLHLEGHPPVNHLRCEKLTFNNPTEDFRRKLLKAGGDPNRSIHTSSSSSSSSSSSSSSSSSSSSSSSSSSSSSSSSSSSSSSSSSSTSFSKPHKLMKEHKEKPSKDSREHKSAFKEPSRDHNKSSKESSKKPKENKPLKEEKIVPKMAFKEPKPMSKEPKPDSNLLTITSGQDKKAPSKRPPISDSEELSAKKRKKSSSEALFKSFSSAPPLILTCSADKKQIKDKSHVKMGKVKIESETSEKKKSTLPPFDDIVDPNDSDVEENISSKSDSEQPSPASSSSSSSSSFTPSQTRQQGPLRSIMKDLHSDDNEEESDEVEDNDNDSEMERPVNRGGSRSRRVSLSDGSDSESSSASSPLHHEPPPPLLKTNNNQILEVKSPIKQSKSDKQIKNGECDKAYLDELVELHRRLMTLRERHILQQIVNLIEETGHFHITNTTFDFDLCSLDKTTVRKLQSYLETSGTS
Vif TR-FRET: inhibitors of Vif binding to APOBEC3G peptide, primary screen, biochemical, TR-FRET, GST-Vif 1-94, biotin-A3G peptide, dose response retest (AID 1117319) | TR-FRET GST-Vif / biotin-A3G peptide binding; higher % means a stronger effect; test concentration not given here; strong numbers were not always called active | inhibition, %; hits with a dose series show IC50 in µM | actives 0.57% (n = 260,000);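 active = above the screen mean plus three standard deviations and confirmed in dose response; inconclusive = results disagree or hit not tested in dose response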;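 also: Vif residues 1-94 fused to GST binding biotinylated APOBEC3G peptide 110-148; 0% = full assay without inhibitor and 100% = GST in place of GST-Vif; retest series ran down from 100 µM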
Ecoli rRNA inh: inhibits bacterial ribosomal RNA function over humanized ribosomes; E. coli WT GFP vs humanized-ribosome RFP mutants, fluorescence, 24 h; stronger effect = lower value; DMSO median 0, no signal -100; GFP signal change (wild-type ribosome), % (test concentration not listed); actives 1.6% (n = 350,000); AID 720706;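 active = significant combined selectivity score with lowered wild-type GFP, culture density cut under 30%, mutant RFP and density less affected; inactive = any of these conditions unmet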; also: one replicate is shown; some compounds called inactive have numbers as strong as hits
Ecoli rRNA inh OD600: recorded beside Ecoli rRNA inh, whose call it bears; OD600 change, %; measured here: OD600 growth;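 optical density of the mix in the first replicate; 0 = DMSO median and -100 = no signal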
Ecoli rRNA inh RFP: further read-out of Ecoli rRNA inh, marked with its call; RFP signal change, %; measured here: RFP humanized mutant strains;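 first replicate; 0 = DMSO median and -100 = no signal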
* hit, by the source's call; ? = inconclusive; & = joins results of further samples.

SMILES	MLL AF4-AF9 inh	Vif TR-FRET	Ecoli rRNA inh	Ecoli rRNA inh OD600	Ecoli rRNA inh RFP
Cc1cc(C)c2c(c1)OC(=O)CC2c1ccccc1C (configuration not stated)	-1.8	-1%	0	1	1.2
CC(C)c1ccc(S(=O)(=O)N2CCN(C(=O)[C@@H]3CCCN3C(=O)c3cccs3)CC2)cc1	-1.9	3%	9	10	0.4
Oc1c(CN2CCOCC2)cc(CN2CCOCC2)c(O)c1CN1CCOCC1	7.8	4%	-4	9	18
CC(=O)Nc1ccc(-c2c(C)cc3oc(=O)cc(-c4ccccc4)c3c2C)cc1	-2.9	-6%	-25	-23	-4.3
Cc1ccc(Sc2ncnc3onc(C)c23)c(C)c1	0.2	1%	4	-2	-1.5
CCN(CC)C(=O)C1=C(C)N(CCCN2CCCC2=O)C(=O)C(CC(=O)NCCc2ccccn2)C1 (configuration not stated)	-2.9	1%	5	17	9.5
CC[C@]1(C(=O)OC)[C@H]2C(=O)N(C)C(=O)[C@H]2[C@H]2CN=C(SCc3ccc(C)cc3)N21	1.0	-2%	18	11	0.6
CC(=O)Nc1c(Cl)c(Cl)c2c(c1Cl)C(=O)c1cc(Cl)ccc1-2	-0.7	-7%	-2	-32	-1.0
Cc1ccc2nc(N)nnc2c1	-1.7	-4%	2	10	-4.9
C[C@H]1CN([C@@H](C)CO)C(=O)c2cc(-c3cccc(F)c3)cnc2O[C@@H]1CN(C)S(C)(=O)=O	-2.1&2.0	-2%	15&2	5&2	2.1&-3.0
CCCc1ccc(S(=O)(=O)N2CCN(C(C)C(=O)NCc3ccccc3)CC2)cc1 (configuration not stated)	-7.0	-12%	-7	-33	-3.2
CCCCN(C(=O)COC(=O)c1sccc1C)c1c(N)n(CCC)c(=O)[nH]c1=O	2.7	-1%	16	6	4.9
COCc1ccc(CN2CCC(n3nccc3NC(=O)c3ccc4c(c3)OCO4)CC2)o1	1.6	-3%	1	8	4.2
Cn1c(=O)[nH]c2c(c(C(=O)O)nn2C)c1=O	-3.6	4%	15	13	2.0
CCc1ccc(/C=C2\SC(=S)N(CCCC(=O)N3CCCC3)C2=O)cc1	6.6	-1%	-12	-28	18
O=C(NCc1ccccc1)c1cccc(NC(=O)C2CC2)c1	-3.7	2%	2	0	-6.4
Cn1c(N)c(C(=O)CSc2nnc(-c3cccs3)n2C2CC2)c(=O)[nH]c1=O	-1.1	-4%	11	12	-2.4
CCCCNC(=O)C(c1ccc(-c2ccccc2)cc1)N(CCN1CCOCC1)C(=O)CCCCCN1C(=O)NC(c2ccc([N+](=O)[O-])cc2)C(C(=O)OCc2ccccc2)=C1C (configuration not stated)	-28	28%	19	17	-0.5
CC1=CC2C(C3C=CC2(C)C(=O)C3(C)O)C(C)(O)C1=O (configuration not stated)	?	-7%	17	12	2.0
CC(=NNC(=S)N1CCCCCC1)c1ccccn1	3.4	1%	12	5	-2.0

Some entries already given, limited to Ecoli rRNA inh:
smiles	Ecoli rRNA inh
Cc1ccc2nc(N)nnc2c1	2
C[C@H]1CN([C@@H](C)CO)C(=O)c2cc(-c3cccc(F)c3)cnc2O[C@@H]1CN(C)S(C)(=O)=O	15&2
CCCc1ccc(S(=O)(=O)N2CCN(C(C)C(=O)NCc3ccccc3)CC2)cc1 (configuration not stated)	-7
CCCCN(C(=O)COC(=O)c1sccc1C)c1c(N)n(CCC)c(=O)[nH]c1=O	16

Returning to the listing; the 4 compounds before the break are reprinted first.
SMILES	MLL AF4-AF9 inh	Vif TR-FRET	Ecoli rRNA inh	Ecoli rRNA inh OD600	Ecoli rRNA inh RFP
Cn1c(N)c(C(=O)CSc2nnc(-c3cccs3)n2C2CC2)c(=O)[nH]c1=O	-1.1	-4%	11	12	-2.4
CCCCNC(=O)C(c1ccc(-c2ccccc2)cc1)N(CCN1CCOCC1)C(=O)CCCCCN1C(=O)NC(c2ccc([N+](=O)[O-])cc2)C(C(=O)OCc2ccccc2)=C1C (configuration not stated)	-28	28%	19	17	-0.5
CC1=CC2C(C3C=CC2(C)C(=O)C3(C)O)C(C)(O)C1=O (configuration not stated)	?	-7%	17	12	2.0
CC(=NNC(=S)N1CCCCCC1)c1ccccn1	3.4	1%	12	5	-2.0
Cc1ccc(S(=O)(=O)N2C[C@H]3C(=O)C[C@@H](c4ccc(Cl)cc4)N(S(=O)(=O)c4ccccc4C)[C@H]3C[C@H]2c2cccc(Cl)c2)cc1	-4.5	-2%	0	8	1.1
CCOC(=O)C1(NC(=O)C2(N3C(=O)c4ccccc4C3=O)CCCC2)CCCC1	-6.5	-1%	-6	14	5.4
C[C@H](CO)N1C[C@H](C)[C@@H](CN(C)Cc2ccc3c(c2)OCCN3C)OCc2cnnn2CCCC1=O	-1.8&-17	-2%	4&-1	8&-4	-2.2&-0.1
COCCn1c(C)cc(/C=C(\C#N)C(=O)OCC(=O)Nc2ccc(S(N)(=O)=O)cc2)c1C	1.3	-3%	1	2	-1.2
Cc1ccc([C@H]2C[C@H](O)[C@@H](n3cc(C4CC4)nn3)CN2CC2CCCCC2)cc1	1.0	-1%	-7	-3	-5.4
O=C(O)C1(Nc2ccccc2Cl)CCCC1	-3.0	-2%	0	10	-2.2
O=C1[C@H]2[C@@H](c3ccc(C(F)(F)F)cc3)N[C@]3(CCCN(Cc4ccc(Br)cc4)C3=O)[C@H]2C(=O)N1Cc1ccccc1	-1.9	2%	0	18	-1.9
O=C(CSc1nnc2ccc(-c3ccccn3)nn12)Nc1ccc(F)cc1	-8.5	-14%	2	8	0.3
CCSc1nc(COC(=O)NC)c(COC(=O)NC)n1C	-2.1	3%	10	10	2.3
CC(CNC1CCCCC1)OC(=O)c1ccc([N+](=O)[O-])cc1 (configuration not stated)	-1.9	-7%	1	16	-1.9
CC1(C)N=C(N)N=C(N)N1c1cccc(C#N)c1	2.1	-5%	8	8	0.3
COc1ccc(C(=O)NCC(=O)OCc2ccc(Cl)cc2Cl)cc1OC	-4.7	-15%	15	7	2.6
O=P(Cc1cccc2ccccc12)(c1ccccc1)c1ccccc1	3.0	-4%	-5	-22	2.9
CCCCN1C(=O)C(CC(=O)NCCCCc2ccccc2)CC(C(=O)N(C)C)=C1C (configuration not stated)	-4.0	3%	0	-4	13
COCCNC(=O)c1ccc(N2CC3CC(C2)c2cccc(=O)n2C3)c(NC(=O)c2ccccc2Br)c1 (configuration not stated)	1.0	5%	5	8	0.4
O=C(COC(=O)c1cccc(S(=O)(=O)N2CCCCCC2)c1)Nc1ccccc1	0.6	4%	4	2	0.5
CCN1CC(C)(C)N(C(=O)c2ccccc2)CC1(C)C	-9.4	0%	1	7	-2.1
COC(=O)c1ccccc1NC(=O)CSc1nc2ccsc2c(=O)n1CCCCC(=O)O	-1.8	5%	-1	-4	4.2
COc1ccccc1NC(=O)N(C)C[C@H]1OCc2cn(nn2)CCCC(=O)N([C@@H](C)CO)C[C@@H]1C	-1.9&1.4&-1.5	-4%	10&0	16&2	-1.7&-2.0
O=C(COC(=O)Cc1ccc(F)cc1)NC1CCCCCC1	-9.1	-5%	-9	-19	0.0
CCOC(=O)C1=C(C)N(C[C@@H]2CC[C@@H](Cc3ccc(-c4ccccc4)cc3)O2)C(=O)NC1c1ccc([N+](=O)[O-])cc1 (some centres not stated)	2.2	15%	6	7	-0.5
Cc1ccc(S(=O)(=O)Nc2ccccc2)cc1[N+](=O)[O-]	0.9	-5%	-8	5	2.8
COc1cccc(NC(=O)CN(C)C(=O)CC2CCCC2)c1	1.5	2%	4	14	-1.9
COc1ccc2ccc3cccc[n+]3c2c1	-1.8	-1%	16	3	2.7
Cn1c(=O)[nH]c(=O)c2[nH]c(CO)nc21	-5.7	3%	8	14	-0.8
CC1(NC(=O)c2cccc(S(=O)(=O)N3CCCc4ccccc43)c2)CCS(=O)(=O)C1 (configuration not stated)	2.9	2%	1	4	4.2
O=C1NN=C2CCCCCCCCCCC12 (configuration not stated)	-2.3	9%	-27	-59	-11
COc1ncnc2c1ncn2CCCNCC(c1ccccc1)c1ccccc1	0.7	-7%	-7	12	-2.1
COc1ccc(C(=O)N(C)C(C)c2nccs2)cc1OC1CCN(C(C)=O)CC1 (configuration not stated)	-4.8	-7%	8	20	-4.1
CN(C)Cc1cccc(-c2ccccc2)c1O	0.1	-6%	3	6	-3.3
COc1ccccc1Nc1cc(C)nc2c(C)cccc12	-1.1	-4%	9	7	0.9
C(=NN=C1c2ccccc2-c2ccccc21)c1c[nH]c2ccccc12	2.9	-7%	-8	3	-2.3
COc1ccc2c(c1)CCC1(C)CC(=O)C=C21 (configuration not stated)	1.4	8%	5	6	5.1
CC(=O)C1=C(O)C(=CC=Cc2ccccc2)OC1=O	-0.3	17%	-2	7	-0.6
NC(=O)C1CCCN(C(=O)CNC(=O)C23CC4CC(CC(C4)C2)C3)C1 (configuration not stated)	-2.0	2%	-3	-3	-2.3
CC[C@]12c3[nH]c4ccc(Cl)cc4c3CCN1C(=O)[C@@H](CC(=O)NCCC1=CCCCC1)C[C@@H]2C(=O)N1CCN(C(=O)C2CC2)CC1	-8.6	-1%	1	-11	-6.4
COc1ccc(NC(=O)CN2C(=O)c3ccccc3S2(=O)=O)cc1S(=O)(=O)N1CCOCC1	-1.1	0%	7	16	-4.0
CC1(c2cccc(Br)c2)NC(=O)N(CC(=O)Nc2ccc(N3CCCCC3)cc2)C1=O (configuration not stated)	21	8%	-18	-66	14
Cc1cccc(C2=NN(c3ccccc3)[C@@H](C(=O)N3CCOC3=O)[C@@H]2c2ccc(Cl)cc2)c1	-7.6	-5%	24	16	-0.3
c1ccc(NN=C(c2ccccc2)c2cccs2)cc1	11	-3%	5	-2	-2.1
O=C(c1ccc([N+](=O)[O-])cc1)N(Cc1ccccc1)Cc1ccccc1	1.3	2%	-26*	-17*	-7.6*
Cc1ccccc1CC(=O)N1CCC(CCC(=O)NC2CC2)CC1	0.4	-6%	7	23	-4.2
CC(C)(C)OC(=O)N(CCc1ccccc1)Cc1ccccc1OCc1cccc(NC(=O)/C=C/c2ccccc2)c1	-1.1	6%	10	4	-0.2
COc1ccc(S(=O)(=O)N(C)C[C@H]2Oc3ncc(C#CC4(O)CCCC4)cc3C(=O)N([C@@H](C)CO)C[C@@H]2C)cc1	-0.5&-0.8	0%	2&-2	-8&4	0.5&-2.7
CC(=O)Nc1cc2c(cc1Cl)-c1ccccc1C2O (configuration not stated)	-1.9	-6%	-1	6	-3.3
COC1=C(Br)C(=O)c2nc(C)ccc2C1=O	-6.3	14µM*	11	10	5.0
COc1ccc(-c2noc(CCC(=O)N3CCN(c4ccccc4F)CC3)n2)cc1	-2.4	4%	-23	-27	-1.1
CCOC(=O)c1coc(C(=O)OCC)c1C(=O)OCC	-0.4	-11%	5	6	-1.1
CC(NC(=O)C(=O)c1cn(CC(=O)N2CCCC2)c2ccccc12)c1ccccc1 (configuration not stated)	0.2	-28%	-7	-8	1.2
O=C(c1ccccc1)C1N=NCC1c1ccc(Cl)cc1 (configuration not stated)	2.1	-14%	-14	-31	-8.4
O=C1[C@H]2[C@@H](c3ccccc3)N[C@]3(CCCN(Cc4ccc(Br)cc4)C3=O)[C@H]2C(=O)N1Cc1ccccc1	2.9	4%	-3	-3	1.6
COc1cc2[nH]c(=S)nc(NCCc3ccc(C)cc3)c2cc1OC	3.0	-38%	-26*	-14*	-3.1*
CCC1(CC)NC(=O)N(CC(=O)OCC(=O)c2cc(C)c(C)cc2C)C1=O	-14	-1%	-1	6	1.0
C[C@@H]1CN([C@H](C)CO)C(=O)c2c(c3ccccc3n2C)-c2ccccc2CO[C@@H]1CN(C)C(=O)Nc1ccc2c(c1)OCO2	0.5&7.2	-3%	1&-1	-7&3	11&-2.0
CC(=O)c1c(C)[nH]c(C(=O)CN2C(=O)NC3(CCCCC3C)C2=O)c1C (configuration not stated)	0.9	-1%	7	10	-0.9
COc1ccc(C)cc1NC(=O)CSCc1cc(=O)n2c(C)csc2n1	-7.0	1%	15	17	3.1
CCOC(=O)C1=CN(Cc2cccc(F)c2)S(=O)(=O)N(C)C1c1ccccc1 (configuration not stated)	0.3	4%	-13	-16	-4.3
CC1(C)OC1(C#N)c1ccccc1 (configuration not stated)	-2.5	-10%	2	15	-1.7
COC(=O)C1(C)CCCC2(C)C1CCC13OCC(CC21)C(O)(C(C)C)C3O (configuration not stated)	-64	-1%	12	16	-0.7
CCN(C(=O)COC(=O)c1oc2ccc(OC)cc2c1C)C1CCS(=O)(=O)C1 (configuration not stated)	-14	-6%	6	8	1.8
CC1CCC2(CC1)NC(=O)N(NC(=O)CCc1c[nH]c3ccccc13)C2=O (configuration not stated)	0.9	-5%	-1	-6	-2.1
CCCCCCN1C[C@H](n2cc(COC(=O)c3ccccc3)nn2)[C@@H](O)C[C@@H]1c1ccc(Cl)cc1	0.6	-1%	13	13	6.0

An excerpt; the hit share may differ from the screen's.
